# Bioassay records: PubChem BioAssay, National Center for Advancing Translational Sciences (NCATS)
# Vaccinia Venus: inhibitors of vaccinia virus (Venus reporter) | Potency, µM (highest dose often 36.5 µM), for the others: top-dose activity change, negative = inhibition, hits mostly inhibitors | AID 720580 | 330,000 tested, 0.46% active | Vaccinia virus Venus reporter expression, fluorescence; active means well fitted inhibition curve with a large enough effect; inconclusive means small, poorly fitted or top-dose-only effect; inactive means no such curve, though single readings can be large or run the other way; tested in A549 cells; note: nearly all actives have a fitted effect of over 30% in size; inactives centre near -10
# VACV mCherry inh: vaccinia inhibition (mCherry reporter) | Potency, µM (highest dose often 36.5 µM), for inactives: top-dose activity change, negative = inhibition, usual class: inhibitors | Vaccinia virus mCherry reporter infection, fluorescence; about a quarter of the inactives have no number | 310,000 tested, 0.63% active; active = well fitted inhibition curve with a large enough effect; inconclusive = small, poorly fitted or top-dose-only effect; inactive = no such curve, though single readings can be large or run the other way; tested in A549 cells; note: nearly all actives have a fitted effect of over 35% in size; inactives centre near -10
# * marks the source's active call; other numbers are inactive results; i = inactive; ? = inconclusive; . = not tested or not shown; & = joins results of further samples; [ ] = remark or other dose. % is set by controls: 0 for no effect and ±100 for the full control effect; potency is the fitted concentration of half-maximal effect.
# Values in the order: Vaccinia Venus, VACV mCherry inh
- CCCn1nc(C(=O)Nc2nnc(C3CC3)s2)c2ccccc2c1=O
    -12%, -3%
- O/N=C/c1ccc(OCc2ccccc2F)c(Cl)c1
    -24%, -6%
- CC1=C(/C=C/C(C)=C/C=C/C(C)=C\C(=O)O)C(C)(C)CCC1
    ?, -16%
- COc1ccc(CN(CC(=O)NCc2ccc3c(c2)OCO3)C(=O)c2csnn2)cc1
    -12%, -16%
- CCCCCC(=O)N1C[C@H](n2cc(COC(=O)c3ccccc3)nn2)[C@@H](O)C[C@@H]1c1ccccc1
    -17%, i
- Cc1cccc(C)c1NC(=O)NN=C1CCCCC1
    -7%, -9%
- COc1ccc(C(=O)NNC(=S)NC(=O)c2ccccc2)cc1
    -13%, ?
- Cc1ccc(-c2cc(-c3ccc(C)cc3)[n+](C)o2)cc1
    -26%, -10%
- CCn1ncc(Cl)c1C(=O)NC(=S)Nc1c(C)cc(C)cc1[N+](=O)[O-]
    -9%, -23%
- COc1ccc(N2CCN(C(CNC(=O)C(=O)NCCc3ccccc3)c3cccnc3)CC2)cc1 (configuration not stated)
    -20%, -14%
- COc1cccc(C2CC(c3ccc(Cl)cc3)Nc3nc(N)nn32)c1 (configuration not stated)
    -7%, -5%
- O=C(NCC(=O)N1CCN(C(=O)c2ccccc2)CC1)c1ccccc1
    -11%, -14%
- c1cc2c(cc1Cn1cnnn1)OCO2
    1%, -7%
- N#Cc1nc(-c2ccccc2)oc1NCC1CCCO1 (configuration not stated)
    -1%, -12%
- COC(=O)c1cc(=O)n2c(-c3ccc(OC)cc3)csc2n1
    -14%, .
- COc1ccccc1-n1cc(CN2CCOc3ccc(CN4C[C@@H](C)O[C@@H](C)C4)cc3C2)cn1
    1%, -12%
- CCOC(=O)c1ccc(-c2ccc(N3C(c4ccsc4)=Cc4ccc(F)cc4C3c3c[nH]c4ccc(C#N)cc34)cc2)cc1F (configuration not stated)
    1%, 34%[activator]
- CCOc1ncccc1C(=O)OCC(=O)NCCc1ccc(OC)cc1
    -9%, .
- Cc1ccc(C(C)(C)C)c(OCCCCN2CCCC2)c1
    -21%, ?
- COc1cc(/C=N/NC(=O)CCOc2ccccc2C)cc(Br)c1O
    -13%, -15%
- CC(C)(C)OC(=O)N1CCC[C@@H]1C(=O)N1CCC[C@@H]1C(=O)NCc1ccccc1Cl
    6%, -2%
- CS(=O)(=O)N1CCC(C(=O)Nc2ccccc2)CC1
    -7%, -11%
- Cc1cc(Cl)cc2sc(NC(=O)C3CC3)nc12
    3%, 7%
- CCc1ccc2nc(N(Cc3cccnc3)C(=O)c3cccs3)sc2c1
    -14%, -5%
- Cc1nc(N)c(S(=O)(=O)c2ccccc2)c(Nc2ccc(Br)cc2)n1
    8%, 3%
- CCN1CCN(c2oc(-c3ccc(COc4ccccc4C)o3)nc2C#N)CC1
    -3%, -8%
- C=C(C)COc1ccc2c(C)c(CC(=O)N3C[C@H]4C[C@@H](C3)c3cccc(=O)n3C4)c(=O)oc2c1C
    -26%, -24%
- Cc1ccc(S(=O)(=O)Nc2ccc(N3CCN(C)CC3)nc2)cc1
    -7%, -13%
- N#Cc1cc(Oc2cccnc2)c(Oc2cccnc2)cc1C#N
    ?, -6%
- C=CCOc1ccc(/C=C/C(=O)OCC(=O)NCCCc2ccccc2)cc1
    5%, -15%
- Cc1ccc(CNC(=O)CCCn2c(=O)c3ccccc3n(CC(=O)C(C)(C)C)c2=O)cc1
    -10%, -20%
- CN(C)/C=C(\C#N)S(=O)(=O)c1ccc(Cl)cc1
    -6%, -10%
- COc1ccc(-c2cccc(C(=O)Nc3cccc(C(=O)O)c3)c2)cc1
    -11%, i
- Cc1ccc(C)c(OCC(=O)N/N=C\c2cccn2C)c1
    -10%, -8%
- Cc1ccc(N(Cc2cc3ccccc3[nH]c2=O)C(=O)c2cccs2)cc1
    -7%, -1%
- Cc1cc(C)n(-c2nc(-c3ccccc3)cs2)n1
    -1%, -8%
- CCOC(=O)N1CCN(C(=O)C[C@@H]2C[C@@]3(C(=O)OC)CCCCC=C3N(Cc3cccc4ccccc34)C2=O)CC1
    -10%, 9%
- CCSc1nnc(Cc2cc(=O)[nH]c(=O)[nH]2)n1-c1cc(C)ccc1C
    -14%, -13%
- CC(C)S(=O)(=O)c1cnc(-c2ccccn2)nc1N
    -13%, i
- CC(C(=O)Nc1ccc(Cl)cc1)N1C(=O)NC2(CCCC2)C1=O (configuration not stated)
    2%, -7%
- COc1cc2c(cc1OC)C(C)NCC2 (configuration not stated)
    -10%&0%, -1%&-3%
- O=C1c2ccccc2C(=O)N1CCC#C/C=C1\c2ccccc2C(=O)N1c1ccccc1
    -12%, -6%
- Cc1ccc(N2C(=O)NC(=O)/C(=C\c3ccoc3)C2=O)cc1
    53%[activator], -15%
- CC(=O)Nc1ccc(S(=O)(=O)N(C)CC(=O)NC2CCCCCCC2)cc1
    -16%, -24%
- O=C1NC[C@H](CCCCN2C[C@H](Cc3ccc(O)cc3)N(CC3CCCCC3)C(=O)C2=O)N(Cc2ccccc2)C1=O
    -2%, 1%
- O=C(C[n+]1cccc(/C=N/O)c1)N(Cc1ccccc1)Cc1ccccc1
    -1%, i
- NC1=C([N+](=O)[O-])C(c2ccc3c(c2)OCO3)c2c(c3ccccc3oc2=O)O1 (configuration not stated)
    -8%[7.34 µM], -9%[7.34 µM]
- CCN(CC)C(=O)CN(C#N)c1nc(C)cc(C)n1
    -12%, i
- NS(=O)(=O)c1ccc(CCNC(=O)c2ccc3ccccc3n2)cc1
    -9%, -20%
- Cc1cccc(NC(=O)CN2C(=O)S/C(=C\c3cc(C)n(C)c3C)C2=O)c1
    -15%, ?
- CCOc1cc(/C=C(/C#N)c2nc3ccccc3[nH]2)ccc1OCc1ccc(C(=O)O)o1
    -4%, -8%
- N#Cc1ccc(CSc2nnc(NC(=O)C3CCCO3)s2)cc1 (configuration not stated)
    1%, -4%
- CCc1ccc2c(c1)cc(C)c1nnc(SCC(=O)Nc3cc(OC)c(OC)cc3C(=O)O)n12
    19%, -9%
- O=C(Oc1ccc(=O)n(-c2ccccc2)n1)c1cccc(Cl)c1
    -10%, .
- CCC(C)[C@H](NC(=O)C1CC(=O)N(c2ccc(OC)cc2)C1)C(=O)N1CCCCC1 (some centres not stated)
    -6%, i
- O=C(NCC1CCCO1)C1CCCN(S(=O)(=O)c2ccc(F)cc2)C1 (configuration not stated)
    -16%, -13%
- C=CCN(c1ccccc1OC)S(=O)(=O)c1ccc(Cl)c(C(=O)Nc2ccc(N3CCOCC3)cc2)c1
    -15%, -17%
- COc1cccc(NCc2nnc(SCC(=O)NC3CCS(=O)(=O)C3)n2C2CCCCC2)c1 (configuration not stated)
    -4%, -21%
- Brc1ccc2c(ccc[n+]2CCc2ccccc2)c1
    -14%, -3%
- CN1c2c(nc(N)[nH]c2=O)NCC1CNc1ccc(C(=O)NC(CCC(=O)O)C(=O)O)cc1 (configuration not stated)
    -16%, -11%

# (continued)
# Values in the order: Vaccinia Venus, VACV mCherry inh
- COc1cccc(OCc2cc(/C=N/n3cncn3)ccc2OC)c1
    11%, -4%
- COc1cc(NS(C)(=O)=O)cc(OC)c1OC
    -7%, -3%
- CCN1CCN(CCCNC(=O)CN2C(=O)c3cccnc3Oc3ccc(Cl)cc32)CC1
    -16%, i
- C=CCN1C(=O)CSc2ccc(C(=O)NC(C)c3ccccc3)cc21 (configuration not stated)
    7%[7.34 µM], -8%[7.34 µM]
- Cc1ccc(NC(=O)Cn2c(=O)n(Cc3ccccc3)c(=O)c3c(C)c(C)sc32)c(C)c1
    1%, 1%
- Clc1ccc(-c2cc(C3CCNCC3)[nH]n2)c(Cl)c1
    -16%, i
- Cc1ccc(NC(=O)CNc2cccc(S(=O)(=O)N3CCCCC3)c2)cc1F
    -19%, ?
- O=C(Cc1ccccc1)NNC1CC(=O)N(c2ccccc2)C1=O (configuration not stated)
    -3%, -13%
- Cc1oc2c(c1C(=O)NCCO)CCCC2
    -8%, -16%
- COc1cccc(NC(=O)CSc2nc3ccc(NC(=O)c4ccco4)cc3s2)c1
    -3%, -9%
- N#C/C(=C\c1cccc2ccccc12)c1nn(-c2ccccc2)c(N)c1C#N
    -16%, -24%
- CC(=O)Nc1ccc(NC(=O)Cn2cnc3c(cnn3C(C)(C)C)c2=O)cc1
    -20%, .
- O=c1[nH]c(/C=C\c2cccc(F)c2)nc(O)c1[N+](=O)[O-]
    -24%, -1%
- COc1cc(OC)cc(C(=O)NC(=S)N2CCCCC2c2cccnc2)c1 (configuration not stated)
    -10%, -5%
- Cc1oc(-c2ccccc2F)nc1CSCC(=O)NC1CCC(C)CC1 (configuration not stated)
    -8%, -24%
- COc1ccc(N(C)S(=O)(=O)c2cccc(C(=O)Nc3cc(OC)ccc3OC)c2)cc1
    -9%, -3%
- Cc1cc(C)c(C(=O)O)c(Cl)n1
    -8%, i
- O=C1NC(=O)C(C(CC(=O)c2ccccc2)c2ccccc2)C(=O)N1 (configuration not stated)
    4%, i
- Cc1ccc(S(=O)(=O)N2CCCOC2CNC(=O)C(=O)NCc2ccccc2C)cc1 (configuration not stated)
    -22%, ?
- O=C1CCCc2c1nc(-c1ccco1)n2O
    -20%, .
- Cc1cc(C)n2nc(NCc3ccccc3Cl)nc2n1
    -17%, -23%
- CCOC(=O)c1cccc(NS(=O)(=O)c2cn(C)c(C)n2)c1
    -1%, 0%
- C=CCNC(=O)/C(C#N)=C/c1c(N(Cc2ccccc2)Cc2ccccc2)nc2ccccn2c1=O
    -26%, -26%
- CC(=O)Oc1ccc(C(=O)c2ccccc2)c(OC(C)=O)c1
    14%, i
- CC(C)Oc1ccc2nnnn2n1
    -6%, -15%
- CCCCN1CC(=O)N2[C@H]3c4cc(Cl)ccc4OC[C@@H]3[C@H](C(=O)OCC)[C@]2(C)C1=O
    -15%, i
- Cc1cccc(N=Cc2c(O)cc(C)oc2=O)c1
    -8%, -15%
- COc1ccc(NC(=O)N(C)C[C@H]2Oc3ccc(NC(=O)Nc4ccc5c(c4)OCO5)cc3C(=O)N([C@H](C)CO)C[C@@H]2C)cc1
    -1%, i
- O=C(C[C@H]1CC[C@@H](NS(=O)(=O)c2ccccc2)[C@@H](CO)O1)NCc1ccc(Cl)c(Cl)c1
    -23%, i
- O=C(Nc1cccc(NC(=O)c2ccc(Br)o2)c1)c1ccccc1
    -6%&-4%, -12%&-6%

# A few values from above.
# For Vaccinia Venus, COc1ccc(NC(=O)N(C)C[C@H]2Oc3ccc(NC(=O)Nc4ccc5c(c4)OCO5)cc3C(=O)N([C@H](C)CO)C[C@@H]2C)cc1 reads -1%
# For VACV mCherry inh, COc1cccc(OCc2cc(/C=N/n3cncn3)ccc2OC)c1 reads -4%

# (next part)
# Values in the order: Vaccinia Venus, VACV mCherry inh
- CC[C@]1(c2cccc(C)c2)C(=O)N(C(=O)OC)N1C(=O)OC
    ?, 11µM*
- O=C(CSc1nnc(-c2ccncc2)o1)Nc1cccc(F)c1
    -13%, -2%
- Cc1cccn2cc(CCNC(=O)c3ccco3)nc12
    0%, -2%
- CC(C)(C)c1ccc(Oc2ccc(NC(=O)CCCC(=O)O)cn2)cc1
    0%[7.34 µM], i[7.34 µM]
- O=C(O)CCSc1nnc(-c2ccc(Cl)cc2Cl)o1
    -4%, -5%
- NS(=O)(=O)c1ccc(NC(=O)/C=C/c2cn(-c3ccccc3)nc2-c2cccc(Cl)c2)cc1
    ?, -27%
- Cc1ccc(S(=O)(=O)NNC(=O)c2sc(=S)n(C)c2C)cc1
    -13%, -21%
- Cc1ccc(C(=O)COC(=O)CNC(=O)C(c2ccccc2)c2ccccc2)cc1[N+](=O)[O-]
    -15%, -17%
- Cc1cccc(OCCCCNCc2ccccc2)c1
    -10%, -7%
- Cc1nc2cc(S(=O)(=O)N3CCC(C(=O)O)CC3)ccc2n1C1CCCC1
    -1%, -15%
- c1ccc(Oc2ncnc3oc(-c4ccccc4)cc23)cc1
    -8%, .
- COc1cccc(C(c2nnnn2-c2ccc3c(c2)OCCO3)N2CCC(n3c(=O)[nH]c4ccccc43)CC2)c1OC (configuration not stated)
    -21%, -15%
- COC(=O)c1ccccc1NC(=O)Cn1c(=O)n(Cc2ccccc2)c(=O)c2c(C)c(C)sc21
    -3%, -1%
- N#Cc1cccc(S(=O)(=O)NCC(=O)NCCCc2ccccc2)c1
    -6%, 0%
- COc1cc2[nH]c3c(=O)n(N)c(=O)[nH]c3c2cc1OC
    -12%, i
- ClCCN(CCCl)c1ccc(C2=NCCc3ccccc32)cc1
    -23%, ?
- COc1cc(-c2cnc3c(NC(C)=O)cc(-c4ccc(N5CCN(C)CC5)cc4)cn23)cc(OC)c1OC
    5%, -1%
- COC(=O)c1ccc(C2CC(=O)Nc3c2c(C)nn3-c2nc(C)cc(C)n2)cc1 (configuration not stated)
    -13%, -6%
- Cc1c(C(=O)N2c3ccccc3Sc3ccccc32)cccc1[N+](=O)[O-]
    -18%, ?
- Nc1ncnc2c1ncn2[C@@H]1O[C@H](C(=O)NCC2CCN(Cc3ccccc3)CC2)[C@@H](O)[C@H]1O
    -11%, i
- Cc1ccccc1S(=O)(=O)N(CC(O)CN1C(=O)NC(C)(C)C1=O)c1ccccc1 (configuration not stated)
    1%, -2%
- CCN1CCN(CC(=O)Nc2sc3c(c2C#N)CCC(C)C3)CC1 (configuration not stated)
    -17%, -3%
- CCCCn1c(N)c(N(CC(C)C)C(=O)c2ccc(F)c(S(=O)(=O)N3CCOCC3)c2)c(=O)[nH]c1=O
    -11%, -25%
- Fc1ccccc1N1CC(c2ccccc2)C(c2cccs2)=N1 (configuration not stated)
    -9%, -7%
